Bioassay records as filed in PubChem.
nsP2pro primary – inhibitors of chikungunya virus nsP2 protease; AID 1964107; Potency, µM (titrated, usually from 24.9 µM), without a hit: top-dose activity change, negative = inhibition, hits mostly inhibitors; FRET peptide cleavage, nsP2pro, fluorescence 1 h; 31,000 compounds, 1.1% hits; active means well fitted inhibition curve with a large enough effect; inconclusive means small, poorly fitted or top-dose-only effect; inactive means no such curve, though single readings can be large or run the other way; also: nearly all actives have a fitted effect of over 60% in size; a reference inhibitor and vehicle were the controls
Target sequence (Q8JUX6 whole entry, looked up): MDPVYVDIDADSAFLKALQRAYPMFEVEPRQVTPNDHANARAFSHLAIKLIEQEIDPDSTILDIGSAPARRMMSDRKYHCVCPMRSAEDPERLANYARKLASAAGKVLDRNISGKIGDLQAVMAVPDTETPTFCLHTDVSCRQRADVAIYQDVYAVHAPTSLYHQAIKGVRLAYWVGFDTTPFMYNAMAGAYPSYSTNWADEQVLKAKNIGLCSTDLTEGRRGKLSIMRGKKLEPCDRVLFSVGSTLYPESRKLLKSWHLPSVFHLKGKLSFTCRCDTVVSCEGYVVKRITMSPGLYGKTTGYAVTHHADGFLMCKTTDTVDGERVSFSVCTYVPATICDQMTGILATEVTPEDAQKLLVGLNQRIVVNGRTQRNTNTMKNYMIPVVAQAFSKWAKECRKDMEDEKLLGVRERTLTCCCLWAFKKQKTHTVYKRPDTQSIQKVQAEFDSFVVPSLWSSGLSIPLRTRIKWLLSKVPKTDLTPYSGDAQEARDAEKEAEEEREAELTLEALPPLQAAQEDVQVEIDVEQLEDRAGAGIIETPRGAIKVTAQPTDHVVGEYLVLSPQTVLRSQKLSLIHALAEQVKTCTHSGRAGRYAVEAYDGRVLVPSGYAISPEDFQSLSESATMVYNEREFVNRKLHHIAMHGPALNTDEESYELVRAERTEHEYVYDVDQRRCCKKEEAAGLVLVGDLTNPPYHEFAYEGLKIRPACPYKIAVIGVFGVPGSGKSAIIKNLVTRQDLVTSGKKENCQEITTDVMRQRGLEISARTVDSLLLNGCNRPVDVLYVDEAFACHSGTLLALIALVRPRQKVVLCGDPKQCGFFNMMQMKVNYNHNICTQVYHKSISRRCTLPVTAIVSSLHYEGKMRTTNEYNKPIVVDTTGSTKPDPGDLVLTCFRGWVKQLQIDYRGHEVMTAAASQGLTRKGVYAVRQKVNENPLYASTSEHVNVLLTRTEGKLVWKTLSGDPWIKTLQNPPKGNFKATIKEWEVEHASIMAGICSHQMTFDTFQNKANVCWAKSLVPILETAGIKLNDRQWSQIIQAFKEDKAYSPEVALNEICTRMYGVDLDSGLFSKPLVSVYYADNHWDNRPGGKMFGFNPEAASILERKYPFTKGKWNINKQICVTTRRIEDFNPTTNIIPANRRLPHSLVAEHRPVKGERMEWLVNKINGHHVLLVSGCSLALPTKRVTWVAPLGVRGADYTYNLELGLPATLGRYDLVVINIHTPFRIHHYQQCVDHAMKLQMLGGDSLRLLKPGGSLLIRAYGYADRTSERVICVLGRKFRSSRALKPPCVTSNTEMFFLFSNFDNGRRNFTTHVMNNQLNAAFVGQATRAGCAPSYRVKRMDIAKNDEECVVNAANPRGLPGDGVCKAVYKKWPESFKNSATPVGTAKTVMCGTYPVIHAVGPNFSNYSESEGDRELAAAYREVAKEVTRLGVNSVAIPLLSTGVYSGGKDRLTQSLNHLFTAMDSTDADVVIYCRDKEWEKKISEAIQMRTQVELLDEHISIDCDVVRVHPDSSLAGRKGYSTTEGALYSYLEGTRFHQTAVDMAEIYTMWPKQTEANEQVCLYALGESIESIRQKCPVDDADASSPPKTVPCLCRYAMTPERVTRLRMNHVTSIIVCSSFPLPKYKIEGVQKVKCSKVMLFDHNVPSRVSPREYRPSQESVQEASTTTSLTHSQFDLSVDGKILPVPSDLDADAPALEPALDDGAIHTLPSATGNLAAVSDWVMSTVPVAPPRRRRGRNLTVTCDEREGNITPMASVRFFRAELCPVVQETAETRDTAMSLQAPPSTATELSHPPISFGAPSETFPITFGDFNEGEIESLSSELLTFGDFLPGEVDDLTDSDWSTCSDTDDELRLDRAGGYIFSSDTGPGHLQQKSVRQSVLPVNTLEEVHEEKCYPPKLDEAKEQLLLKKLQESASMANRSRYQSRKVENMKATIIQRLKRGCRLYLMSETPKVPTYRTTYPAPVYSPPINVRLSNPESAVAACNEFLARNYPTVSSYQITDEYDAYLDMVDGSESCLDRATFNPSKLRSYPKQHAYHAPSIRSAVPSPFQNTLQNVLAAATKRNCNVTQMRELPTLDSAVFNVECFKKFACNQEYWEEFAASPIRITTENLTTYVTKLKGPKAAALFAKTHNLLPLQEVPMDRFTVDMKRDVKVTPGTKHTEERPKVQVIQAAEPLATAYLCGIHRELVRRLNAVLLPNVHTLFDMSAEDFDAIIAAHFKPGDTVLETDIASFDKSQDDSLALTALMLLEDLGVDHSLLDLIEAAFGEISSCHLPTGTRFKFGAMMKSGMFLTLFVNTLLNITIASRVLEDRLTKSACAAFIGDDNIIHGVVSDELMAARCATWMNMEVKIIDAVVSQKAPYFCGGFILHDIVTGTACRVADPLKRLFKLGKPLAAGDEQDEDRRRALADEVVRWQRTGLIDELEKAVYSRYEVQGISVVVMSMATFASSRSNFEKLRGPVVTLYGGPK
Numbers without * were called inactive; i = inactive; ? = inconclusive; & = joins results of further samples; [ ] = remark or other dose. % is scaled to controls: 0 for no effect and ±100 for the full control effect; potency is read from the fitted curve at half-maximal effect. The list is partial; the hit share may differ from the screen's.

SMILES	nsP2pro primary
COc1ccc(-c2nc(S(=O)(=O)c3ccccc3)c(N3CCCCC3)o2)cc1	11µM*
Cc1ccc(Cl)cc1N1CCN(CCNC(=O)Nc2ccc(Cl)cc2)CC1	-13%
O=C(Nc1ccc2nc(SCCOc3ccccc3)sc2c1)c1ccco1	-33%
CCOc1ccc(NC(=O)N2CCN(Cc3cc(=O)n4nc(-c5ccc(OC)cc5)sc4n3)CC2)cc1	-16%
O=C(Nc1ccc(Cl)cc1)c1nc2c(o1)CCN(Cc1ccncc1)CC2	?
Nc1ccn([C@H]2C[C@H](O)[C@@H](CO)O2)c(=O)n1	-11%
O=C(NCc1cccc(F)c1)c1nc2c(o1)CCN(CC1CCCC1)CC2	3.5µM*
Oc1ccc(OCc2ccccc2)cc1	-3%&-5%&-6%
COc1ccccc1CN1CCC(N2CC3CCCN3C2=O)CC1 (configuration not stated)	1%[39.2 µM]
c1cncc(-c2nnc3n2CCN(Cc2ccsc2)C3)c1	-3%[39.2 µM]
OC[C@@]1(O)CO[C@@H](OC[C@H]2O[C@@H](Oc3ccccc3)[C@H](O)[C@@H](O)[C@@H]2O)[C@@H]1O	55%
COc1ccc(NC(=O)CCS(=O)(=O)c2ccc3c(c2)oc(=O)n3C)cc1OC	-13%
O=[S+]([O-])(c1ccc2c(c1)OCCO2)N1CCN([S+](=O)([O-])c2c(F)cc(O)cc2F)CC1	1%
CC(C)(O)C1Cc2c(ccc(C(=O)CCc3ccccc3)c2O)O1 (configuration not stated)	29%
Nc1ncnc2nc(-c3ccc(N4CCOCC4)nc3)cc(-c3cccc(Br)c3)c12	-6%
COC(=O)NC1CCCN(Cc2ccc(-c3cncnc3)cc2)C1 (configuration not stated)	-8%[39.2 µM]
COc1ccc2nc(-c3ccccc3OC)sc2c1	i
CCC(=O)N1C[C@@H]2CCCN3CCC[C@@H]([C@H]23)[C@H]1CCCC(=O)NC	3%
C=C1C(=O)O[C@@H]2C[C@@]3(C)C[C@@H](O)C[C@H](C)C3=C[C@H]12	?
CCCS(=O)(=O)Nc1ccc2n(c1=O)C[C@H]1C[C@@H]2CN(C(=O)c2ccc(-c3ccccc3)cc2)C1	?
CC(C)CCN1CC2ON=C(C(=O)O)C2C1 (configuration not stated)	-3%[39.2 µM]
CCc1ccccc1Nc1cc(C(=O)NC(C)c2ccccc2)c2ccccc2n1 (configuration not stated)	-21%
CCC1=C(C)C(=O)C(C)CC12C(=O)CCC2C(=O)O (configuration not stated)	4%
CCn1c(C2CCCNC2)nn(Cc2csc(-c3ccccc3)n2)c1=O (configuration not stated)	-3%
COc1ccc(NC(=O)Nc2cnc3c(c2)CCC3)cc1	-2%
Fc1ccccc1-c1nc(N2CCN(c3cccc(Cl)c3)CC2)c2ccccc2n1	-15%
COc1ccc(CNCc2cccc3ccccc23)cc1	-1%
O=C(c1nc(-c2ccsc2)c2cnccn12)N1CCCC1	-15%[39.2 µM]
Cc1cc(C)nc(N2C[C@H]3OC(=O)N(CCc4cccc(Cl)c4)[C@H]3C2)n1	-4%
CCCn1c(-c2ccc(F)cc2)nc2c(NC(C)CN(C)C)nc(C)nc21 (configuration not stated)	-2%
O=C(Nc1nnc(S(=O)(=O)N2CCc3ccccc32)s1)c1ccccc1Cl	-11%
CC(=O)N1CCN(CC[C@H]2CN(C(=O)c3ccc(N(C)C)cc3)CC[C@H]2CC(=O)O)CC1	-23%
CC(C)=CCO[C@H]1CCOC[C@H]1NC(=O)CCc1ccc(=O)[nH]n1	i
Oc1ccc(COCc2ccccc2)c2cccnc12	i
Cc1ccnc(NC(=S)N2CCN(c3cccc(C(F)(F)F)c3)CC2)n1	i
Cc1ccc(CNC(=O)Cn2c(=O)n(-c3cccc(Cl)c3)c(=O)c3sc4ccccc4c32)cc1	-9%
[Mn].[O]=[Mn][OH].[O]=[Mn][OH]	-3%
CC(C)N1CCN(C(=O)c2csc(N3CCN(c4cccc(Cl)c4)CC3)n2)CC1	i
O=C(Nc1ccccc1)c1cccc(S(=O)(=O)Nc2cccc(F)c2)c1	-8%
Cc1noc(C)c1-c1ccc2ncnc(NCc3ccc(C(F)(F)F)cc3)c2c1	-11%
NC[C@@H]1O[C@@H](O[C@@H]2[C@@H](O[C@@H]3O[C@H](CO)[C@@H](O)[C@H]3O)[C@H](O)[C@@H](N)C[C@H]2N)[C@@H](N)[C@H](O)[C@H]1O	-5%[5.1 µM]
CCc1ccc(NC(=O)Cn2c(=O)n(CCCCC(=O)NCc3ccc4c(c3)OCO4)c(=O)c3ccccc32)cc1	-16%
Cc1cc(NS(=O)(=O)c2ccc(NC(=O)Cc3ccc(C)c(F)c3)cc2)no1	3%
N#C[C@H]1C[C@H]2C[C@@H]2N1C(=O)[C@@H](N)C12CC3CC(CC(O)(C3)C1)C2	4%
O=C(Nc1ccc(F)cc1)N[C@H]1[C@H](O)[C@@H](N2CCOCC2)[C@@H]2OC[C@H]1O2	0%[39.2 µM]
O=C(O)/C=C/CCCCCCCO	-3%
Cc1ccc(C(=O)Nc2ccc(Br)cc2)cc1S(=O)(=O)N1CCOCC1	-20%
C[C@@H]1O[C@@H](O[C@H]2[C@@H](OC(=O)[C@]34CCC(C)(C)CC3C3=CCC5[C@@]6(C)C[C@H](O)[C@H](O[C@@H]7O[C@H](CO)[C@@H](O)[C@H](O)[C@H]7O[C@@H]7OC[C@@H](O)[C@H](O)[C@H]7O)[C@@](C)(C(=O)O)C6CC[C@@]5(C)[C@]3(C)CC4)OC[C@H](O)[C@@H]2O)[C@H](O)[C@H](O)[C@H]1O[C@@H]1OC[C@@H](O)[C@H](O)[C@H]1O (some centres not stated)	-9%[5.1 µM]
C=C1CC[C@@H]2[C@](C)(CC[C@H](O)[C@@]2(C)CCC=C(C)C)[C@@H]1Cc1c[nH]c2ccccc12	20%[10 µM]
CC(=O)N1CCC(N(Cc2ccco2)C(=O)Nc2ccc(C)c(Cl)c2)CC1	-10%
COc1ccc2c(c1)c(CC(=O)Nc1cccc(F)c1C)c(C)n2C(=O)c1ccc(Cl)cc1	-16%
COc1ccccc1NC(=O)CSc1nc(O)c(C/C=C/c2ccccc2)c(=O)[nH]1	-10%
CCc1ccc(C(=O)c2cn(CC(=O)Nc3cccc(OC)c3)c3cc4c(cc3c2=O)OCO4)cc1	-19%
CCCNC(=O)Cn1nc(-c2ccc(C)c(C)c2)c2cnc3ccc(F)cc3c21	-27%
CCOC(=O)c1cc(S(=O)(=O)Nc2cc(C)c(Cl)cc2OC)[nH]n1	-26%
COC1CCN(CC2CCCCCN2C(=O)c2cc(F)ccc2F)CC1 (configuration not stated)	?
O=C(Nc1nnc(S(=O)(=O)N2CCCC2)s1)c1ccccc1Br	5%
Cc1csc2c(NCCC3CN(c4cnn(C)c(=O)c4)CCO3)ncnc12 (configuration not stated)	-4%
N#Cc1ccc(CN2CCC3(CNc4ccccc4[S+](=O)([O-])N3)C2)cc1 (configuration not stated)	-14%
COC(=O)[C@H]1[C@H]2C[C@@H]3c4[nH]c5cc(OC)ccc5c4CCN3C[C@H]2C[C@@H](OC(=O)/C=C/c2cc(OC)c(OC)c(OC)c2)[C@@H]1OC	-10%[10 µM]

Next part:
SMILES	nsP2pro primary
CSc1cccc(N2C(=O)N(CC(=O)NCc3ccccc3Cl)c3ccccc3S2(=O)=O)c1	-17%
Cc1ccc(C)c(NC(=O)N2C[C@H](c3nc(-c4cccnc4)no3)[C@@H](C)C2)c1	i
COCc1ncc(C)n1C1CCCN(C(=O)CCCc2ccccc2)C1 (configuration not stated)	3%
CC1=C(C(=O)Nc2ccc(C)cc2C)C(c2ccccc2[N+](=O)[O-])n2ncc(C(=O)Nc3ccccc3)c2N1 (configuration not stated)	-27%
NCCCCC(=O)Nc1ccc(Cl)cc1C(=O)c1ccc[nH]1	-7%
CN(C)c1ccc(C2O[C@@H](c3ccccc3)C[C@H](c3ccccc3)O2)cc1 (some centres not stated)	?
CC(C)(C)C(=O)Nc1ccc2nc(SCC(=O)N3CCCC3)sc2c1	-16%
CC[C@H]1CN(C(C)=O)CC[C@H]1CC(=O)NCCOC	2%[39.2 µM]
CC(C)N1CCc2c(-c3nc4ccccc4s3)csc2C1	i
Cc1cccc(C(=O)Nc2ccc(N3CCN(c4ccc(F)cc4)CC3)c(C(=O)O)c2)c1	?
CCOC(=O)c1c(-c2ccccc2)csc1NC(=O)c1cc(=O)c2ccc(C)cc2o1	-19%
CCc1cn(C[C@H](NC(=O)C2CCCC2)C(=O)O)c(=O)[nH]c1=O	i
CCOc1ccc(NC(=O)Cn2cc(C(=O)c3ccc(CC)cc3)c(=O)c3cc4c(cc32)OCO4)cc1	-16%
CCC(Sc1nc2n[nH]c(C)c2c(=N)n1-c1ccccc1Cl)C(=O)N(CC)CC (configuration not stated)	-9%
CC(=O)O[C@@H](C[C@@H]1C=C(C)C(=O)O1)[C@H](C)[C@H]1CCC2[C@@]3(C)CC[C@H](O[C@@H]4O[C@H](CO)[C@@H](O)[C@H](O)[C@H]4O[C@@H]4O[C@@H](C)[C@H](O)[C@@H](O)[C@H]4O)C(C)(C)C3CC[C@@]2(C)[C@@]12COC(=O)C2 (some centres not stated)	53%[activator][5.1 µM]
Cc1ccc(NS(=O)(=O)c2cc3c(cc2-c2ccsc2)NC(=O)CO3)cc1C	-2%
CCc1nc(Nc2ccc(F)c(Cl)c2)c2c3c(sc2n1)CCCC3	?
CN1C[C@H]2CN(C(=O)c3cccnc3)CCN2C1=O	2%[39.2 µM]
COc1cc(C(=O)Nc2sc3c(c2C#N)CCCC3)c(Br)c(OC)c1OC	37%[activator]
COc1ccc(CN2CCOc3nc(-c4cccc(C(F)(F)F)c4)ncc3C2=O)cc1	-3%[39.2 µM]
COC(=O)c1ccc(Cn2ncc3c4sc(C)cc4n(C)c3c2=O)cc1	-10%
CC[C@H]1CN(c2nc(N)c(C(N)=O)nc2Cl)CCN1C1CCN(Cc2ccc(Cl)cc2)CC1	-9%
O=C(NCCSc1c(-c2ccc(Cl)cc2)[nH]c2ccccc12)c1ccc(S(=O)(=O)N2CCOCC2)cc1	?
CC(C)C(=O)N1c2ncnn2C2(CCCCC2)[C@@H]2CCCC[C@@H]21	-25%

Nothing new here: 6 of the compounds above.
SMILES	nsP2pro primary
CCOc1ccc(NC(=O)Cn2cc(C(=O)c3ccc(CC)cc3)c(=O)c3cc4c(cc32)OCO4)cc1	-16%
CCC(Sc1nc2n[nH]c(C)c2c(=N)n1-c1ccccc1Cl)C(=O)N(CC)CC (configuration not stated)	-9%
CC(=O)O[C@@H](C[C@@H]1C=C(C)C(=O)O1)[C@H](C)[C@H]1CCC2[C@@]3(C)CC[C@H](O[C@@H]4O[C@H](CO)[C@@H](O)[C@H](O)[C@H]4O[C@@H]4O[C@@H](C)[C@H](O)[C@@H](O)[C@H]4O)C(C)(C)C3CC[C@@]2(C)[C@@]12COC(=O)C2 (some centres not stated)	53%[activator][5.1 µM]
Cc1ccc(NS(=O)(=O)c2cc3c(cc2-c2ccsc2)NC(=O)CO3)cc1C	-2%
CCc1nc(Nc2ccc(F)c(Cl)c2)c2c3c(sc2n1)CCCC3	?
CN1C[C@H]2CN(C(=O)c3cccnc3)CCN2C1=O	2%[39.2 µM]

New compounds follow
SMILES	nsP2pro primary
Cc1cc(-c2nc(Nc3ccc(F)c(F)c3)c3ccccc3n2)cc(C)n1	i
O=C(Nc1ccc(F)cc1F)c1ccc2c(O)c(S(=O)(=O)c3ccc(Cl)cc3)c(=O)[nH]c2c1	-11%
CC(C)c1ccc(=O)n(CC(=O)NCCc2ccccc2)n1	i
CCN(CC)C(=O)C[C@@H]1c2nc(NC(=O)N3CCOCC3)sc2C[C@@H]2[C@](C)(CO)[C@H](O)CC[C@]21C	4%
COc1ccc(-n2c(=O)c3c4c(sc3n(Cc3cc(=O)n5c(C)cccc5n3)c2=O)CCC4)c(OC)c1	-12%
Cc1nn2c(c1-c1ccccc1OCc1ccccc1)N(C(=O)Cc1ccccc1)CCC2	i
COc1ccc(-c2cccc(NS(=O)(=O)c3cccs3)c2)nn1	-10%
CC(C)CN(Cc1cccnc1)C1CN(C(=O)CCc2nc3ccccc3s2)C1	i
Clc1cccc(N2CCN(c3ncnc4c3nc3n4CCCCC3)CC2)c1	-19%
O=c1oc2ccc(Br)cc2cc1-c1csc(-c2ccccc2)n1	-9%
N#Cc1ccc(C(=O)Nc2ccc(=O)n3c2[C@@H]2C[C@@H](CN(C(=O)c4ccc(F)cc4)C2)C3)cc1	i
Cc1ccccc1-c1noc(-c2cccnc2N2CCN(c3ccccc3)CC2)n1	-28%
O=C1OC2(c3ccc(O)cc3Oc3cc(O)ccc32)c2ccccc21	286%[activator]
Cc1ccc(N2CCN(S(=O)(=O)c3c(C)[nH]c(=O)[nH]c3=O)CC2C)cc1 (configuration not stated)	-9%
Cc1nn(CCC#N)c(C)c1[C@@H]1C=C[C@@H](NC(=O)Nc2ccccc2)C1	?
Cc1ccc(-c2cc(C(=O)Nc3ccn[nH]3)c3ccccc3n2)cc1C	2%
CCN1CCN(C(=O)c2cnn(-c3ccc(F)cc3F)c2C2CCN(C(=O)OC(C)(C)C)CC2)CC1	-15%
Cc1nc(-c2ccccc2Br)cc([C@H]2CN3CC[C@H]2C[C@@H]3CNC(=O)NC2CCCCC2)n1	5µM*
CCOc1ccccc1C(=O)Nc1ccc(S(=O)(=O)N2CCCCC2c2cccnc2)cc1 (configuration not stated)	-1%
COc1ccc(-c2nc3nc(C)cc(Nc4ccc(C(C)=O)cc4)n3n2)cc1	-21%
CC(=O)c1[nH]cc(CCC(=O)O)c1CC(=O)O	-12%
O=C1c2ccccc2C(=O)N1c1cccc(=O)[nH]1	?
CCn1cc(C(=O)NCCCOC(C)C)c(=O)c2cc(S(=O)(=O)N3CCOCC3)ccc21	-13%
Cc1ccc(/C=C/c2onc(C)c2S(=O)(=O)N2CCC(C(=O)N3CCOc4ccc(C)cc43)CC2)cc1	-15%
CCOC(=O)c1ccc(N2CCN(c3cccc(Cl)c3)CC2)c(NC(=O)Nc2ccc(OC)cc2OC)c1	-21%
